Vaccinia mCherry: qHTS for Stage-Specific Inhibitors of Vaccinia Orthopoxvirus: mCherry Reporter Primary qHTS | actives 0.63% (n = 310,000) | Potency, µM (top dose mostly 36.5 µM), without a hit: at the top dose activity change, negative = inhibition, most hits filed as inhibitors | Vaccinia virus mCherry reporter infection, fluorescence; about a quarter of the inactives have no number; active = well fitted inhibition curve with a large enough effect; inconclusive = small, poorly fitted or top-dose-only effect; inactive = no such curve, though single readings can be large or run the other way; tested in A549 cells; further: nearly all actives have a fitted effect of over 35% in size; inactives centre near -10
Vaccinia Venus: qHTS for Stage-Specific Inhibitors of Vaccinia Orthopoxvirus: Venus Reporter Primary qHTS | Potency, µM (top dose mostly 36.5 µM), for the others: at the top dose activity change, negative = inhibition, usual class: inhibitors | actives 0.46% (n = 330,000) | Vaccinia virus Venus reporter expression, fluorescence; active means well fitted inhibition curve with a large enough effect; inconclusive means small, poorly fitted or top-dose-only effect; inactive means no such curve, though single readings can be large or run the other way; tested in A549 cells; further: nearly all actives have a fitted effect of over 30% in size; inactives centre near -10
* marks the source's active call; other numbers are inactive results; i = inactive; ? = inconclusive; / = no result given; & = joins results of further samples; [ ] = another dose, or the depositor's remark. On the % scale 0 is the no-effect control and ±100 the full control effect; potency means the concentration at half of the fitted maximal effect.

SMILES	Vaccinia mCherry	Vaccinia Venus
CCC(C)NC(=O)c1ccc2c(c1)N(Cc1ccccc1)C(=O)c1ccccc1S2 (stereo unspecified)	i	-12%
C=C(C)COc1ccc(-c2ncncc2-c2ccc(Br)cc2)c(O)c1	-13%	-20%
O=C(Nc1cccc(-c2csc(Nc3ccc(Cl)cc3)n2)c1)c1cc([N+](=O)[O-])cc(C(F)(F)F)c1	?	?
O=S(=O)(c1ccc(Cl)s1)N1CCCCC1	-3%	-7%
CC(=O)Nc1ccccc1O	i	-6%
CCCN(CCC)C1Cc2cc(OC)c(OC)cc2C1	-13%&-2%	-6%&-7%
Cc1ccccc1NC(=O)c1cc(S(=O)(=O)N2CCOCC2)cs1	/	-4%
COc1ccc(OC)c(NC(=O)Nc2ccc(Cl)cc2)c1	-9%	-17%
Cc1ccc(CSc2nnc(CNc3ccc(F)cc3)o2)cc1	-15%	-12%
O=S(=O)(c1ccc(Cl)cc1)N1CCN(C(=S)Nc2ccc(F)c(Cl)c2)CC1	-20%	?
Cc1ccc(C)c(Cn2c(=O)n(Cc3ccc4c(c3)OCO4)c(=O)c3oc4ccccc4c32)c1	-9%	-1%
Cc1ccc(CN(C(=O)N2CCN(C)CC2)S(=O)(=O)c2ccc(C)cc2)cc1	i	-9%
Cc1cc(NC(=O)/C=C/C(=O)N(CC(=O)NC2CCCC2)c2cccc3ccccc23)no1	-13%	-2%
CCOC(=O)CNC(=O)CCNS(=O)(=O)c1ccc2c(c1)c(=O)n(C)c(=O)n2C	-1%	-11%
Cc1ccc(C(=O)c2ccc(N3CCOCC3)c(F)c2)cc1	/	-16%
N#CCC(=O)N/N=C\c1ccc(OC/C=C/c2ccccc2)cc1	?	-26%
CC1CCCCN1S(=O)(=O)c1ccc(C(=O)Nc2nnc(C3=COCCO3)o2)cc1 (stereo unspecified)	-21%	-15%
N#Cc1ccc(/C=C2\CCn3c2nc2cc(C(=O)O)ccc2c3=O)cc1	i	-9%
COc1ccc(CNC(=O)c2cnc3n(c2=O)CCS3)cc1	8%	1%
CC1(C)c2ccccc2N(CC(N)=O)C12C=Cc1ccccc1O2 (stereo unspecified)	i	16%

Entries of single compounds, quoted from the list. Order of values: Vaccinia mCherry | Vaccinia Venus
Cc1ccc(C(=O)c2ccc(N3CCOCC3)c(F)c2)cc1 is listed as / | -16%
Cc1ccc(C)c(Cn2c(=O)n(Cc3ccc4c(c3)OCO4)c(=O)c3oc4ccccc4c32)c1 is listed as -9% | -1%
C=C(C)COc1ccc(-c2ncncc2-c2ccc(Br)cc2)c(O)c1 is listed as -13% | -20%
COc1ccc(OC)c(NC(=O)Nc2ccc(Cl)cc2)c1 is listed as -9% | -17%
Cc1ccccc1NC(=O)c1cc(S(=O)(=O)N2CCOCC2)cs1 is listed as / | -4%

(list continues)
SMILES	Vaccinia mCherry	Vaccinia Venus
CCCCNc1cc(=O)n(C)c(=O)n1C	-1%	-15%
NC1=Nc2cccc3cccc1c23	34%[activator]	37%[activator]
Cc1ncc2c(c1CNC(=O)/C=C/c1cccs1)CCN(C(=O)c1c(C)noc1C)C2	-14%	8%
COc1ccc(C(=O)/C=C/Nc2cccc(C)n2)cc1OC	i[1.46 µM]	-21%
C=C(C)Cn1c2ccc(NC(=O)NCc3ccc(F)cc3)cc2c(=O)n1C	0%	-11%
Cc1ccc(C2=NN(C)c3nc4ccccc4n3C2)cc1	/	-13%
CC1(C(=O)Nc2ccc3c(c2)OCCO3)CCN1C(=O)C1(c2ccc(Cl)cc2)CC1 (stereo unspecified)	i	-6%
CNC(=O)O/N=C/C(C)(C)S(C)=O (stereo unspecified)	-1%	-11%
COc1ccc(-n2cc(C(=O)Nc3ccccc3C#N)c3ccccc3c2=O)cc1	-1%	-11%
CN=c1scc(-c2c[nH]c3ccccc23)n1C	-9%	-8%
CN1CCN(c2nnc(-c3ccccc3)c(-c3ccccc3)n2)CC1	?	-15%
CC(C)(O)C#Cc1ccc(C(=O)N2CCC(CCC(=O)NC3CC3)CC2)cc1	-5%	-23%
COc1cccc(C(=O)Nc2ccc3nc(SCC(=O)N4CCOCC4)sc3c2)c1	-15%	-19%
CC(C)CCN1CCC(Cc2ccccc2)(NC(=O)c2ccccc2)C1=O (stereo unspecified)	0%	-8%
COc1ccc(S(=O)(=O)N(C)CC(=O)N2CCCC2)cc1	i	-2%
CO[C@H]1[C@H](NC(=O)c2ccsc2)c2ccccc2C12CCN(Cc1cccc3ncccc13)CC2	-13%	-4%
CCN1/C(=C/C(C)=O)Sc2ccc(OC)cc21	?	-24%&-29%&-25%
CCOC(=O)c1ccccc1NC(=O)Cn1c(=O)n(Cc2ccc(C(=O)NCc3ccc4c(c3)OCO4)cc2)c(=O)c2ccccc21	-4%	2%
C[C@@H](C(=O)N1CCN(C(=O)OC(C)(C)C)CC1)n1cc(CCC(=O)O)nn1	-1%	-10%
COCCNC(=O)c1ccccc1NC(=O)Cc1ccccc1	-9%	-5%
Cc1ccc(C)c(OCCOCCN2CCOCC2)c1	3%	-9%
C=CCn1c(SCC(=O)NCc2ccccc2)nnc1C1CCCCC1	/	-8%
COc1ccc(-n2ncc(C(=O)N3CCN(c4ccc(F)cc4)CC3)c2C)cc1	-8%	-12%
COCc1cc(C)nc2c1C(=O)NC(c1ccc(NC(C)=O)cc1)N2Cc1ccccc1 (stereo unspecified)	5%	10%
CN(CCOC(=O)c1ccco1)Cc1ccccc1	/	1%
O=S(=O)(NC(=NC1CCCCC1)c1ccccc1F)c1ccccc1	?	-4%
CN1CCN(C(=O)c2cnn3c(C(F)F)cc(C4CC4)nc23)CC1	-9%	11%
COc1ccc(Cl)cc1C(=O)n1nc(C)cc1C	/	-6%
CC(C)NC(=O)[C@@H]1CSC2c3ccccc3C(=O)N21 (stereo partly specified)	i	-12%
COc1cc(CN2CCC(C(=O)NC(c3ccccc3)c3ccsc3)CC2)cc(OC)c1 (stereo unspecified)	i	-20%

Structures above that contain an aryl thioether with sulfur outside any ring, in the order listed:
SMILES	Vaccinia mCherry	Vaccinia Venus
Cc1ccc(CSc2nnc(CNc3ccc(F)cc3)o2)cc1	-15%	-12%
COc1cccc(C(=O)Nc2ccc3nc(SCC(=O)N4CCOCC4)sc3c2)c1	-15%	-19%
C=CCn1c(SCC(=O)NCc2ccccc2)nnc1C1CCCCC1	/	-8%

The list continues.
SMILES	Vaccinia mCherry	Vaccinia Venus
O=C(CCn1c(=O)c2cccn2c2cccnc21)Nc1ccccc1Br	-7%	-8%
CN(C)C1=NCCN1CCc1ccccc1	-7%	-19%
O=C(O)CCC(=O)Nc1ccc(N2CCCCC2)c(C(=O)O)c1	-13%	-9%
COC(=O)c1cccc(NC(=O)/C=C/c2ccc([N+](=O)[O-])cc2)c1	-8%	-4%
O=C(NCCCl)Nc1ccccc1OCCOc1ccccc1NC(=O)NCCCl	14µM*	?
Cc1ccc(S(=O)(=O)NCCn2nc(C)nc2C)cc1	i	-3%
N#Cc1ccc(COC(=O)Cn2nnc(-c3ccccc3)n2)cc1	-9%	-4%
CC(c1nc2ccccc2c(=O)[nH]1)N1CCN(C)CC1 (stereo unspecified)	-17%	-8%
O=C(N/N=C\c1cn[nH]c1-c1ccccc1)c1cccs1	-29%	-12%
Cc1ccc(-n2c(C)nn(CCOc3ccccc3)c2=O)cc1	-4%	-4%
COc1ccc(-c2nc3cnccn3c2NC2CCCCC2)cc1-c1cccc(Cl)c1	?	?
Cc1cccc(C)c1NC(=O)CSc1nc2c([nH]1)c(=O)n(C)c(=O)n2C	8%	-3%
Cc1ccc(-c2nc(C)sc2CC(=O)OCC(=O)Nc2cccc([N+](=O)[O-])c2)cc1	i	-17%
Cc1onc(-c2ccccc2Cl)c1C(=O)N(C)CC(=O)Nc1ccc(F)c(F)c1F	-26%	-18%
N#Cc1c(NC(=O)c2cc([N+](=O)[O-])ccc2N2CCOCC2)sc2c1CCCC2	-15%	-3%
COc1ccc(Cl)cc1NC(=O)CSc1ccc2nnc(CCNS(=O)(=O)c3ccccc3)n2n1	-9%	-4%
CCOc1ccc(-n2nc(CO)c(C(=O)NCC(c3ccccc3)c3ccccc3)n2)cc1	10%	1%
CC(C)C(=O)NCCc1nc2ccccc2n1C	-24%	-19%
COC(=O)c1ccc(NC(=O)CN2CCC(NC(=O)c3ccco3)CC2)cc1	?	-10%
Cc1ccc(S(=O)(=O)Nc2nc(C)c(C(=O)N/N=C/c3ccccc3)s2)cc1	-13%	-7%
CC(C)(C)c1cc2cccnc2n1Cc1cccc(F)c1	/	-20%
CC(C)(C)OC(=O)C[C@@H]1C/C=C\C[C@H](CC(=O)N(CCO)Cc2ccccc2)C(=O)N[C@H](C(C)(C)C)COC1=O	?	-24%
Cc1ccc(CSC2=NC(C)(C)Nc3ccccc32)c(C)c1	i	-16%
COc1ccc(OC)c(S(=O)(=O)N2CCC(C(=O)NC3CCCCCC3)CC2)c1	i	-9%
Cn1c(-c2ccc(C=O)s2)nc2c3ccccc3c3ccccc3c21	-4%	0%
CCc1ccccc1NC(=O)c1sc(-n2nc(C)c(Cc3ccc4c(c3)OCO4)c2C)nc1C	-19%	1%
Cc1nc(-c2ccc(F)cc2)c(CC(=O)N(C)CC(=O)Nc2ccc(Br)cc2C)s1	-14%	-8%
COc1ccc(C(CNC(=O)c2ccc(NS(=O)(=O)c3ccccc3)cc2)N2CCOCC2)cc1 (stereo unspecified)	-9%	9%
Clc1ccc(N2CC2c2ccncc2)cc1 (stereo unspecified)	-8%	-15%
O=C(Nc1nc2ccccc2n1CCN1CCOCC1)c1ccc(Cl)cc1	i	-2%
C=C1C(O)[C@@H]2O[C@]3(CC[C@H](/C=C/C(C)[C@@H]4CC(C)=CC5(O[C@H](C[C@@](C)(O)C(=O)O)CCC5O)O4)O3)CC[C@H]2O[C@@H]1C(O)CC(C)[C@H]1OC2(CCCCO2)CCC1C (stereo partly specified)	-23%	0.32µM*
O=C(Nc1cccc2nsnc12)c1cc2c(cc1Cl)Sc1nccn1S2(=O)=O	-23%	-6%
COc1cccc2cc(C(N)=O)/c(=N\NC(=O)c3ccccc3)oc12	-1%	-7%
C=CCNC(=O)CSc1nnc(-c2ccncc2)n1CCc1ccccc1	-12%	-12%
C=CCNC(=O)c1ccccc1Cl	-4%	-5%
O=C(CSc1n[nH]c(-c2ccncc2)n1)NCCc1ccccc1	/	-13%
O=c1c(-c2c(O)cc(O)c3c(=O)cc(-c4ccc(O)cc4)oc23)c(-c2ccc(O)cc2)oc2cc(O)cc(O)c12	1%	-1%
CCOc1ccc(NC(=O)Cn2cc(C(=O)c3ccccc3)c(=O)c3cc4c(cc32)OCO4)cc1	-7%	-6%
CNS(=O)(=O)c1ccc(NC(=O)c2cncc(Br)c2)cc1	-13%	-9%
CCc1noc(C)c1C(=O)Nc1nc(-c2cc(OC)ccc2OC)cs1	i	-18%
O=S(=O)(Nc1ccccc1)c1cccc2nsnc12	i	-14%
Cc1ncc(C)c2c([N+](=O)[O-])cccc12	i	-15%

High-throughput results from PubChem.
